Screening data deposited in PubChem by National Center for Advancing Translational Sciences (NCATS).
ClpP mod: qHTS Assay for Activators of ClpP; ATP-dependent Clp protease proteolytic subunit (Bacillus subtilis (strain 168)), P80244; purified B. subtilis ClpP, FRET peptide cleavage, 20 min; Potency, µM (highest dose often 57.5 µM), for inactives: at the top dose activity change, negative = active; actives 1.9% (n = 340,000); active = well fitted falling curve with a large enough effect; inconclusive = small, poorly fitted or top-dose-only effect; inactive = no such curve, though single readings can be large or run the other way; further: potency means the concentration at half of the fitted maximal effect; the source files actives as falling curves though it sought activators and does not explain the sign; nearly all actives have a fitted effect of over 65% in size; many hits overshoot -100%
Target sequence (P80244 whole entry, looked up): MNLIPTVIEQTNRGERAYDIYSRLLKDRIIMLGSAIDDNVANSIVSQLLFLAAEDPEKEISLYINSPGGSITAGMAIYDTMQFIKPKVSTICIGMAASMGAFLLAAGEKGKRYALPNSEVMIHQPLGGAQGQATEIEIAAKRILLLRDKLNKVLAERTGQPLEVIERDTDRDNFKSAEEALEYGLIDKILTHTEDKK
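Buffer: 100 mM Tris/HCl pH8, 100 mM KCl, 0.05% low protease BSA, 2.5% glycerol, 0.01% Tween-20. ClpP 10 microg/mL final; 20 min RT; delta FRET normalized to ADEP and DMSO controls.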
TRPV1 PAM: human TRPV1 potentiation; Q8NER1; TRPV1-expressing cells, Fluo-8 calcium influx, capsaicin EC20 potentiation; host cell line not named in the record; control for the full effect not named in the record; potentiation, % at 8.33 µM; actives 0.02% (n = 320,000); active means potentiation above 80%; inconclusive means 30% to 80%; inactive means below 30%; further: 0% is about no effect
Target sequence (Q8NER1 whole entry, looked up): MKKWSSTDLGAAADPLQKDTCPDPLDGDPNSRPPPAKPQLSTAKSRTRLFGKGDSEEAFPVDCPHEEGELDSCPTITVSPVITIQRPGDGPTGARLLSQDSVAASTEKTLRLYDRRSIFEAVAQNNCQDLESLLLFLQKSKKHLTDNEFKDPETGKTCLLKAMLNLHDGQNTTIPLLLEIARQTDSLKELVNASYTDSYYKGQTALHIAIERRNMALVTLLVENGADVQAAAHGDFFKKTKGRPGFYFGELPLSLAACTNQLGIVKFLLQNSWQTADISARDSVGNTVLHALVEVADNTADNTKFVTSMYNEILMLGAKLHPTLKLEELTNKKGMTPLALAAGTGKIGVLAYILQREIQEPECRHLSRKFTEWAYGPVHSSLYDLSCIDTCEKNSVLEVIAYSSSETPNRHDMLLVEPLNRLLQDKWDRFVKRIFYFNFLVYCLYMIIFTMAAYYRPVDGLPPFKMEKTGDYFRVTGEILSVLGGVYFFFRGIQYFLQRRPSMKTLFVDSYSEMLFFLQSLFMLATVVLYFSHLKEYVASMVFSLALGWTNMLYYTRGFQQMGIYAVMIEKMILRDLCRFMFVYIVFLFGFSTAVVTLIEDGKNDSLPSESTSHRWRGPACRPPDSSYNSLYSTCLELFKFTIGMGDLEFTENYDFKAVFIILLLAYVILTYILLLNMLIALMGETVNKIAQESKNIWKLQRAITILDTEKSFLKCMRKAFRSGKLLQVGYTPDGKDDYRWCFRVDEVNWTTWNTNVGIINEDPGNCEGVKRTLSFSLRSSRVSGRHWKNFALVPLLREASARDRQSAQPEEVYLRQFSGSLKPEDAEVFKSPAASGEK
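Cells expressing TRPV1 were dye-loaded with Fluo-8 and read kinetically: 10 s baseline, 3 min after compound (agonist portion), then 2 min after EC20 capsaicin (allosteric enhancer portion). Calcium-bound dye fluorescence at 480/520 nm.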
gsp agonist: gsp mutant agonism. gsp mutant cells, cAMP HTRF, 30 min; control for the full effect not named in the record. Potency, µM (titrated, usually from 76.9 µM), for the others: at the highest dose activation (cAMP increase), hits mostly activators. actives 0.13% (n = 340,000). AID 624287; active = well fitted activation curve with a large enough effect; inconclusive = small, poorly fitted or top-dose-only effect, or another doubt; inactive = no such curve, though single readings can be large or run the other way; cell line not stated here;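 further: phosphodiesterase inhibitor Ro 20-1724 added with compounds to block cAMP breakdown; potency means the concentration at half of the fitted maximal effect; nearly all actives have a fitted effect of over 60% in size; about a fifth of the inactives were tested at one dose only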
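Cells in DMEM/10% FBS with G418 were pretreated with compounds in DMSO plus […] (300 uM stock) for 30 min at 37C. cAMP was measured by HTRF (cAMP-d2 plus anti-cAMP antibody-K) after 30 min at room temperature.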
TRPML1 inh: human mucolipin-1 channel inhibition. activity change, negative = inhibition, % (test concentration not listed). AID 624415. actives 0.02% (n = 390,000). Q9GZU1. TRPML1-inducible cells, Ca2+ dye fluorescence, FDSS; active compounds read low; inhibition of EC80 agonist-evoked calcium signal; in the data active means activity change below about -50%; inconclusive means about -30% to -50%; inactive means above about -30%;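 further: stimulus is agonist 54-4 at its EC80 concentration; on the % scale 0 is the no-effect control and ±100 the full control effect; compound concentration not given in the record; the text of the record puts the active cut at -80%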
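Calcium fluorescence in TRPML1-DL cells induced overnight with Tet: a 110 s read after compound pin addition, then a 110 s antagonist read after challenge with 54-4 at 4 uM final (EC80).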
gsp antag: antagonists of gsp mutant (McCune-Albright syndrome) | Potency, µM (titrated, usually from 76.9 µM), for inactives: top-dose activity change, negative = inhibition, usual class: inhibitors | gsp-mutant cells, cAMP HTRF, 30 min; control for the full effect not named in the record | actives 0.4% (n = 340,000); active = falling curve of any shape with a large fitted effect; inconclusive = falling curve, mostly with a smaller effect; inactive = flat or rising curve; cell line not stated here;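 further: intracellular cAMP measured with PDE inhibitor Ro 20-1724 present during compound exposure; potency means the concentration at half of the fitted maximal effect; on the % scale 0 is the no-effect control and ±100 the full control effect; nearly all actives have a fitted effect of over 65% in size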
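HTRF cAMP measurement after 30 min RT detection following 30 min, 37C compound treatment alongside […] (added as 300 uM solution) in G418-selected cells seeded at 2000/well and grown 16–24 h.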
Menin-MLL FL inh: menin-MLL binding inhibition, fluorescein peptide. Fluorescence polarization, fluorescein-MLL peptide displacement from menin. FP activity change, % at 61.4 µM. 290,000 tested, under 10 active. AID 1766; inconclusive = falling polarisation curve, or a change in total fluorescence; inactive = total fluorescence flat and polarisation flat or rising; no compound was filed as active; the % refers to the polarisation; negative = inhibition;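 further: % of control where 0% means no effect; inhibitors lower the polarisation; unlabelled MLL peptide was the positive control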
Sfp inh: Sfp phosphopantetheinyl transferase inhibition | Q9F4F7 | Biochemical Sfp PPTase activity, qHTS | Potency, µM, for the others: max response, negative = inhibition, hits mostly inhibitors | actives 3.5% (n = 310,000) | AID 1490; active means well fitted inhibition curve with a large enough effect; inconclusive means small, poorly fitted or top-dose-only effect, or another doubt; inactive means no such curve, though single readings can be large or run the other way;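 further: the enzyme is Sfp with the accession as filed and its product quenches rhodamine fluorescence; potency means the concentration at half of the fitted maximal effect; 0% = enzyme reaction without inhibitor and -100% = no enzyme wells; top concentration of the series not given in the record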
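Fluorescence-quenching assay with 15 nM Sfp, 5 uM rhodamine-CoA and 12.5 uM BHQ-2-labelled ybbR peptide in pH 7.6 Hepes/MgCl2 buffer. Enzyme was pre-incubated with compound for 15 min at room temperature. Rate was taken from the 30-min fluorescence change (525/598 nm).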
* hit, by the source's call; ? = inconclusive; / = no result given; & = joins results of further samples; [ ] = another dose, or the depositor's remark.

SMILES	ClpP mod	TRPV1 PAM	gsp agonist	TRPML1 inh	gsp antag	Menin-MLL FL inh	Sfp inh
CCOC(=O)C1=C(c2ccccc2)NC(=O)NC1c1ccc(OCC#N)c(OC)c1 (configuration not stated)	0.7%	19	-2%	-4	7%	-0.4	15%
Cc1ccc2c(C)c(C(=O)Nc3cccnc3)oc2c1C	-0.2%	/	-13%	22	-7%	/	/
CC(C)C(=O)Nc1ncc(C(F)(F)F)cc1Cl	-0.5%	4	-2%	3	15%	0.9	16%
O=S(=O)(Nc1ccccc1N1CCCCC1)c1ccc(F)cc1	/	-23	17%[15.4 µM]	3	-3%	-4.0	-5%
Cc1cccc(C(=O)NC(=S)NNC(=O)COc2c(C)cccc2C)c1	-3.0%	-5	7%	-7	-1%	3.9	-15%
COc1ccc(-c2sccc2C(C)C(=O)O)cc1 (configuration not stated)	-3.6%	8	9%	-7	-2%	-0.4	12%
COC(=O)c1cc2ccsc2n1Cc1cccc(F)c1	-0.3%	9	-21%	38	-13%	8.6	-1%
Cc1cc(Br)ccc1NC(=O)CN(C)C(=O)C1CCN(c2ncnc3sc(C)c(C)c23)CC1	-3.0%	/	1%	2	32µM*	/	/
Cc1ccc(NC(=O)COC(=O)/C=C/c2cccs2)c(C)c1	?	-5	9%	-15	11%	7.4	-10%
CS(=O)(=O)Nc1ccc(C(=O)NCCC2=CCCCC2)cc1	-3.4%	-15	3%	-15	4%	-6.0	18%
O=C(CSc1nnc(COc2ccccc2)o1)c1ccccc1	1.5%	-2	?	20	-11%	3.8	-5%
COc1ccc(S(=O)(=O)N(CC(=O)Nc2ccccc2C(=O)N2CCOCC2)c2ccc(F)cc2)cc1	11%	-8	-11%[15.4 µM]	10	-1%	/	9%
CCc1ccc(NC(=O)C2CCCN(S(=O)(=O)c3ccc4c(c3)CC(C)N4C(C)=O)C2)cc1 (configuration not stated)	1.2%	-26	-57%	8	-22%	3.7	7%
CNC(C)C(=O)NC(C(=O)N1CCCC1C(=O)NNc1ccccc1)C(C)C (configuration not stated)	-1.5%	-8	-21%	-25	9%	/	/
COCCNC(=O)C1(C(F)(F)F)C/C(=C\CCO)CCCO1 (configuration not stated)	/	/	/	-5	/	-6.2	21%
Cc1ccc(NC(=O)[C@H](C)NC(=O)C2CCN(C(=O)[C@@H](N)C(C)C)CC2)cc1	-3.3%	-12	24%	2	-6%	-0.2	9%
CC1CCN(c2c(NCc3ccc(C(=O)NCc4cccnc4)cc3)c(=O)c2=O)CC1	0.9%	27	-26%	38	6%	-2.7	20%
CCOC(=O)C1CCCN(c2cc(C)nc3cc(-c4ccc(F)cc4)nn23)C1 (configuration not stated)	?	5	-30%	-10	-16%	4.9	-16%
CC1(C)Cc2ccccc2C(=NCCCC(=O)O)N1	0.3%	-9	-69%[inhibitor]	4	3%	0.8	-7%
O=S(=O)(NC1CCCCC1)c1ccc(-c2csnn2)s1	0.6%	0	15%	-12	16%	0.2	16%
N#Cc1c(NC(=O)CN2CCN(S(=O)(=O)c3ccc4c(c3)OCCO4)CC2)sc2c1CCC2	-1.0%	-2	-3%	-7	-1%	9.4	-7%
Oc1[nH]c(=S)sc1C=C1N=c2ccccc2=N1	/	11	10%[15.4 µM]	4	-15%	10	3%
O=C(Nc1ccnn1C1CCN(Cc2cccnc2)CC1)c1ccccc1Cl	0.2%	-12	-49%[inhibitor]	1	15%	/	12%
CCN(CC)CCN(C(=O)c1c(F)cccc1F)c1nc2cc(C)cc(C)c2s1	-0.7%	10	-15%	9	-3%	-0.4	-23%
Cc1cc(NC(=O)c2cc(-c3cccs3)nc3ccccc23)no1	3.8%	?	-27%	3	-4%	0.6	15%
Cc1cccc(NC(=O)CSCC(=O)Nc2ccc(S(=O)(=O)N3CCCC3)cc2)c1	/	-2	2%[15.4 µM]	12	-2%	/	/
O=C(N/N=C/c1cccc(Oc2ccccc2)c1)c1ccccc1F	/	6	/	/	/	-2.5	-5%
CCn1nnc(C(=O)O)c1C(=O)O	-3.4%	1	-2%	2	2%	-1.5	1%
NS(=O)(=O)c1ccc(NC(=O)COC(=O)CCc2ccc(S(=O)(=O)N3CCOCC3)cc2)cc1	3.4%	-2	1%	3	7%	-2.2	16%
O=C(COC(=O)c1cccnc1SC(F)F)NC1CC1	0.7%	-12	-6%	4	13%	/	/
COc1ccc(N2CCN(C(=O)c3ccc(NS(=O)(=O)c4cccs4)cc3)CC2)cc1	/	0	6%[15.4 µM]	-4	-41%	1.7	3%
Cc1ccccc1OCC(=O)NC1CCCCCCC1	/	-12	0%[15.4 µM]	8	-4%	5.0	-4%
CCOc1c2ccc(C(=O)NCc3ccc(C(F)(F)F)cc3C(F)(F)F)cc2nn1C	4.7%	28	-15%	-3	-7%	-1.2	-1%
Nc1nnc(SCC(=O)NC2CCCC2)s1	-0.1%	-1	?	7	7%	-1.5	11%
Cc1ccc(NC(=O)NC2C(NC(=O)Nc3ccc(C)cc3)N(C)C(=O)N2C)cc1 (configuration not stated)	-0.6%	1	1%	-12	12%	1.2	22%
CCOc1ccc2c(c1)C(c1ccc(C)cc1)=NNC(c1ccc(C)cc1)=N2	-6.2%	3	13%	13	-6%	1.7	12%
CCCCOC(=O)n1c(=O)oc2cc(S(=O)(=O)N3CCCCC3)ccc21	-0.9%	-27	-50%[inhibitor]	-11	-16%	8.4	11%
CC(=O)c1ccc(-c2nnc(CCC(=O)N(C)Cc3c(C)nc4ccccn34)o2)s1	/	-7	?	5	-13%	0.4	0%
Cc1ccc(NC(=O)c2ccc(S(=O)(=O)N3CCCC3)cc2)nc1	/	5	5%[15.4 µM]	0	2%	/	/
COc1cc2c(cc1OC)/C(=C/C(=O)N1CCOCC1)NC(C)(C)C2	13µM*	14	?	-14	6%	4.5	?
CC(=O)Nc1ccc(S(=O)(=O)N(C)CC(=O)NCCOc2ccccc2)cc1	-0.4%	/	7%	4	0%	/	/
COc1ccc(OC)c(S(=O)(=O)Nc2cccc(-c3ccc4nncn4n3)c2)c1	/	-6	-32%[inhibitor]	0	-15%	-1.8	5%
Nc1nccc(-c2ccc(-n3cnc4ccccc43)cc2)n1	/	-3	-1%[15.4 µM]	36	-12%	-1.0	6%
COc1ccc(S(=O)(=O)n2c(CCN3CCOCC3)nc3ccccc32)cc1	0.4%	0	-35%	-9	15%	1.5	-14%
CCN(C(=O)CSc1nnc2c3ccccc3n(CC)c2n1)C1CCS(=O)(=O)C1 (configuration not stated)	-0.6%	-17	?	7	13%	-1.1	8%
O=C(CCCOc1ccc(Cl)cc1Cl)NCCc1ccccn1	/	4	6%[15.4 µM]	-9	/	/	8%
O=C(N/N=C\c1ccco1)c1cncc(Br)c1	/	21	/	/	/	0.1	1%
NC(=S)N/N=C/c1c(O)ccc2ccccc12	-3.0%	19	0%	29	7%	9.3	8%
COc1ccc(NC(=O)CN2CCN(c3nc(-c4cccc(OC)c4)cs3)CC2)cc1	-1.5%	8	-39%	-9	0%	11	11%
O=C(CSc1nc2c(cnn2-c2cccc(Cl)c2)c(=O)[nH]1)NCC1CCCO1 (configuration not stated)	0.1%	11	10%	-8	-17%	/	/

Further entries:
SMILES	ClpP mod	TRPV1 PAM	gsp agonist	TRPML1 inh	gsp antag	Menin-MLL FL inh	Sfp inh
Cc1csc(SCC(=O)NC(=O)NC(C)(C)C)n1	/	10	2%[15.4 µM]	2	14%	1.8	17%
CCN(C(=O)COC(=O)CNC(=O)c1ccc(C)cc1)c1c(N)n(Cc2ccccc2)c(=O)[nH]c1=O	1.3%	4	10%	-7	?	/	/
Cc1c(Cl)cccc1NC(=O)COC(=O)Cc1ccsc1	-1.2%	-11	0%	4	5%	/	/
O=C(NCc1ccco1)c1ccccc1Br	-1.0%	1	4%	1	-6%	1.3	17%
CN(C)CC(C)(C)CNS(=O)(=O)CC12CCC(CC1=O)C2(C)C (configuration not stated)	-4.1%	6	-16%	-8	11%	-1.3	-23%
COc1cc(OC)c(NS(=O)(=O)c2coc(C(N)=O)c2)cc1Cl	-2.4%	-21	0%	-13	-2%	-0.2	-4%
CCCc1cc(=O)oc2cc(C)cc(OCC(=O)NCC(O)c3ccccc3)c12 (configuration not stated)	4.0%	?	?	-7	-6%	-0.9	10%
Cc1cc(C)c2c(=O)n3c(nc2c1)C(C)NC(=O)c1cccnc1-3 (configuration not stated)	-2.4%	/	-18%	21	/	/	/
COc1cc(NC(=O)c2cccc(F)c2)ccc1NC(=O)c1cc2ccccc2o1	0.6%&0.3%	4	-1%[15.4 µM]	4&-11	4%	1.6	7%
Cc1ccc(S(=O)(=O)N2CCC(=O)N(C(COCc3cccc(C(F)(F)F)c3)Cc3ccccc3)CC2)cc1 (configuration not stated)	-0.5%	16	/	-9	-12%	2.5	15%
CCOC(=O)c1ccc(NC(=O)NCc2c(C)nn(CC)c2C)cc1	1.1%	-13	9%[15.4 µM]	-3	-4%	0.0	18%
O=C(Nc1ccccc1N(C(=O)c1ccco1)S(=O)(=O)c1cccs1)c1ccco1	-0.9%	-10	13%	5	10%	0.3	14%
CC(C)CC(NS(=O)(=O)OCC(Cl)(Cl)Cl)c1ccccc1 (configuration not stated)	1.3%	13	-92%[inhibitor]	20	9%	0.8	16%
Cc1ccc(C(=O)C[n+]2cccc3cc(C)ccc32)cc1	/	23	-7%[15.4 µM]	-5	/	8.4	12%
Cc1nn(CC(=O)NCCCN2C(C)CCCC2C)c(=O)c2cc3occc3n12 (configuration not stated)	-4.1%	13	24%	17	14%	/	24%
O=C(Cn1cc([N+](=O)[O-])ccc1=O)NCc1ccc(Cl)cc1Cl	-1.2%	28	?	19	5%	/	9%
NC(=O)c1c(NC(=O)C2CC=CCC2C(=O)O)sc2c1CCCCC2 (configuration not stated)	-2.2%	10	1%	9	2%	0.8	35µM*
COC(=O)C1=C(C(=O)OC)[C@@H]2N(C)c3ccc(OC)cc3[C@@]23C[C@@H](C(=O)OC)N(C(=O)COCc2ccccc2)C3=N1	0.1%	/	/	19	-7%	-0.6[11.7 µM]	5%
